gsp antagonist = gsp mutant antagonism | gsp-mutant cells, cAMP HTRF, 30 min; control for the full effect not named in the record | Potency, µM (top dose mostly 76.9 µM), for inactives: at the highest dose activity change, negative = inhibition, hits mostly inhibitors | 340,000 compounds, 0.4% hits; active = falling curve of any shape with a large fitted effect; inconclusive = falling curve, mostly with a smaller effect; inactive = flat or rising curve; cell line not stated here;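 further: intracellular cAMP measured with PDE inhibitor Ro 20-1724 present during compound exposure; potency means the concentration at half of the fitted maximal effect; on the % scale 0 is the no-effect control and ±100 the full control effect; nearly all actives have a fitted effect of over 65% in size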
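HTRF cAMP measurement after 30 min RT detection following 30 min, 37C compound treatment alongside […] (added as 300 uM solution) in G418-selected cells seeded at 2000/well and grown 16–24 h.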
gsp agonist = agonists of gsp mutant (McCune-Albright syndrome) | gsp mutant cells, cAMP HTRF, 30 min; control for the full effect not named in the record | Potency, µM (titrated, usually from 76.9 µM), for inactives: top-dose activation (cAMP increase), usual class: activators | 340,000 compounds, 0.13% hits; active = well fitted activation curve with a large enough effect; inconclusive = small, poorly fitted or top-dose-only effect, or another doubt; inactive = no such curve, though single readings can be large or run the other way; cell line not stated here;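 further: phosphodiesterase inhibitor Ro 20-1724 added with compounds to block cAMP breakdown; potency means the concentration at half of the fitted maximal effect; nearly all actives have a fitted effect of over 60% in size; about a fifth of the inactives were tested at one dose only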
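Cells stably selected in G418 were plated at 2000/well, grown 16-24 hr, then given compounds in DMSO with the PDE inhibitor […] (300 uM solution added) for 30 min at 37C; cAMP was read by HTRF.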
ClpP mod = qHTS Assay for Activators of ClpP. 340,000 compounds, 1.9% hits. Potency, µM (series often up to 57.5 µM), for inactives: at the top dose activity change, negative = active. ATP-dependent Clp protease proteolytic subunit (Bacillus subtilis (strain 168)), P80244. AID 651965, 2013. purified B. subtilis ClpP, FRET peptide cleavage, 20 min; active = well fitted falling curve with a large enough effect; inconclusive = small, poorly fitted or top-dose-only effect; inactive = no such curve, though single readings can be large or run the other way; further: potency means the concentration at half of the fitted maximal effect; the source files actives as falling curves though it sought activators and does not explain the sign; nearly all actives have a fitted effect of over 65% in size; many hits overshoot -100%
Target sequence (P80244 whole entry, looked up): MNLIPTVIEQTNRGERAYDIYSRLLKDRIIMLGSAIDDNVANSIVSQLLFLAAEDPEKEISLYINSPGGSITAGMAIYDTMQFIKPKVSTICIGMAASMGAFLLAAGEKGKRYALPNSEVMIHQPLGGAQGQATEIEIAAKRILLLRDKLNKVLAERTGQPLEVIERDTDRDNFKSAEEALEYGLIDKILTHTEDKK
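Buffer: 100 mM Tris/HCl pH8, 100 mM KCl, 0.05% low protease BSA, 2.5% glycerol, 0.01% Tween-20. ClpP 10 microg/mL final; 20 min RT; delta FRET normalized to ADEP and DMSO controls.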
Menin-MLL FL inh = inhibitors of human menin-MLL interaction, wild-type MLL peptide; Fluorescence polarization, fluorescein-MLL peptide displacement from menin; FP activity change, % at 61.4 µM; 290,000 tested, under 10 active; AID 1766; inconclusive = falling polarisation curve, or a change in total fluorescence; inactive = total fluorescence flat and polarisation flat or rising; no compound was filed as active; the % refers to the polarisation; negative = inhibition;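 further: % of control where 0% means no effect; inhibitors lower the polarisation; unlabelled MLL peptide was the positive control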
TRPML1 inh = blocks the human TRPML1 channel. Q9GZU1. TRPML1-inducible cells, Ca2+ dye fluorescence, FDSS; hits give low values; inhibition of EC80 agonist-evoked calcium signal. activity change, negative = inhibition, % (concentration not given with the values). 390,000 compounds, 0.02% hits. AID 624415; in the data active means activity change below about -50%; inconclusive means about -30% to -50%; inactive means above about -30%;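 further: stimulus is agonist 54-4 at its EC80 concentration; on the % scale 0 is the no-effect control and ±100 the full control effect; the text of the record puts the active cut at -80%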
Target sequence (Q9GZU1 whole entry, looked up): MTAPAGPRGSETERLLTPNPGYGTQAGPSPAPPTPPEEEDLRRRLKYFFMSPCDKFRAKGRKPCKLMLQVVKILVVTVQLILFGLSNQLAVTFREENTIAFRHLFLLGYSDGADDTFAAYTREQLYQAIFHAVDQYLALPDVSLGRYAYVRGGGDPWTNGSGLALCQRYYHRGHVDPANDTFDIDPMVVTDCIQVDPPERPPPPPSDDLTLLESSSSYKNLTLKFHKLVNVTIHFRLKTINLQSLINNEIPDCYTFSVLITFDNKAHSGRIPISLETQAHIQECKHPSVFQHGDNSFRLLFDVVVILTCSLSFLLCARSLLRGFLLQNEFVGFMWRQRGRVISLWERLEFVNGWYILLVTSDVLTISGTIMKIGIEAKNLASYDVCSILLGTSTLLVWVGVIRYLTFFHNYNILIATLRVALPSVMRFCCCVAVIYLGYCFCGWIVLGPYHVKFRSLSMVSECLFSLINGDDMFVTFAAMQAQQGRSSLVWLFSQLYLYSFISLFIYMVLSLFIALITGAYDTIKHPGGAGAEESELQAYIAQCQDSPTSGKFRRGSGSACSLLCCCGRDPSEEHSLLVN
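Calcium fluorescence in TRPML1-DL cells induced overnight with Tet: a 110 s read after compound pin addition, then a 110 s antagonist read after challenge with 54-4 at 4 uM final (EC80).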
TRPML1 ag = activates the human TRPML1 channel; TRPML1-expressing cells, Ca2+ dye fluorescence, FDSS; host cell line not named in the record; reference of the full effect not given here; AID 624414; activation, % (concentration not given with the values); Q9GZU1; 410,000 compounds, 0.12% hits; in the data active = activation above about 50%; inconclusive = about 30% to 50%; inactive = below about 30%; further: 0% is about no effect; the text of the record puts the active cut at 80%
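TRPML1-DL cells, Tet-induced overnight (~16 h, 37 degrees C), loaded 45-90 min at room temperature with Ca8 no-wash calcium dye plus quencher. FDSS fluorescence: 10 s baseline, compound pin-transfer, 110 s agonist read, then EC80 54-4 (4uM final) and 110 s antagonist read.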
* = called active by the depositor; [ ] = dose if it differs, or a comment.

What do the screens show for `CN(C(=O)CSc1nncn2c1cc1occc12)c1ccccc1`?
ClpP mod: -1.6%; TRPML1 inh: 23; TRPML1 ag: 0.4

What do the screens show for `O=C(NCC(c1ccco1)N1CCCC1)c1ccc(Cl)cc1` (centres undefined)?
gsp antagonist: 9%; gsp agonist: -2%; ClpP mod: -3.4%; Menin-MLL FL inh: -1.4; TRPML1 inh: 26; TRPML1 ag: 1.0

What do the screens show for `COc1ccccc1CNC(=O)COc1ccccc1OC`?
gsp antagonist: -10%; gsp agonist: inconclusive; ClpP mod: 0.7%; Menin-MLL FL inh: -1.1; TRPML1 inh: 2; TRPML1 ag: -0.4

What do the screens show for `CCN(c1ccc(OC)cc1)S(=O)(=O)c1cc(-c2cc(C)no2)ccc1C(C)C`?
gsp antagonist: -4%; gsp agonist: inconclusive; ClpP mod: -0.4%; Menin-MLL FL inh: -0.2; TRPML1 inh: 6; TRPML1 ag: 0.7

What do the screens show for `Nc1c(C(=O)CSc2nnc(-c3ccccc3F)o2)c(=O)[nH]c(=O)n1C1CC1`?
gsp antagonist: 11%; gsp agonist: inconclusive; ClpP mod: 1.2%; TRPML1 inh: 4; TRPML1 ag: -0.4

How did CS(=O)(=O)Nc1cccc(C2=NN(C(=O)c3cccc(F)c3)C(c3cccs3)C2)c1 (centres undefined) do in these assays?
gsp antagonist: inconclusive; gsp agonist: 16%; ClpP mod: -3.1%; Menin-MLL FL inh: 5.5; TRPML1 inh: 56; TRPML1 ag: 1.6

Results for CCC(C)NC(=O)CSc1nc2cc(S(=O)(=O)N3CCOCC3)ccc2n1CC (centres undefined) ?
gsp antagonist: -8%; gsp agonist: 16%; ClpP mod: -1.3%; TRPML1 inh: 12; TRPML1 ag: 0.1

Results for Cc1ccc(-c2cc(-c3n[nH]c(=S)o3)c3ccccc3n2)cc1 ?
gsp antagonist: -4%; gsp agonist: -21%; ClpP mod: 20%; Menin-MLL FL inh: 8.2; TRPML1 inh: -13; TRPML1 ag: 1.4

How did CCN1C(=O)CC(N2CCC(Nc3ccc(OC)cc3)CC2)C1=O (centres undefined) do in these assays?
gsp antagonist: 7%[15.4 µM]; gsp agonist: 10%; ClpP mod: -6.4%; Menin-MLL FL inh: 0.9; TRPML1 inh: 1; TRPML1 ag: 0.2

How did COc1ccccc1CNC(=O)CCC1N=C2c3ccccc3N=C(SCC(=O)Nc3ccc(F)cc3)N2C1=O (centres undefined) do in these assays?
ClpP mod: 0.0%; TRPML1 inh: -14; TRPML1 ag: -0.2

What do the screens show for `Cc1ccc(NC(=O)CSc2ncc(S(=O)(=O)c3ccccc3)c(=O)[nH]2)cc1C`?
gsp antagonist: 3%; gsp agonist: -13%; ClpP mod: 0.4%; Menin-MLL FL inh: 3.5; TRPML1 inh: -10; TRPML1 ag: 0.3

Results for COCCn1c(C)cc(C(=O)COC(=O)C2CC(=O)N(CCc3ccc(OC)c(OC)c3)C2)c1C (centres undefined) ?
gsp antagonist: -7%; gsp agonist: 8%[15.4 µM]; ClpP mod: 0.1%; TRPML1 inh: 40; TRPML1 ag: 0.0

What do the screens show for `CCOc1cccc(-c2nnc3sc(COc4ccc(C)cc4)nn23)c1`?
gsp antagonist: 3%; gsp agonist: -10%; ClpP mod: inconclusive; Menin-MLL FL inh: 1.1; TRPML1 inh: 2; TRPML1 ag: 1.3

What do the screens show for `Cc1nc2ccccc2n1CCc1nc2c3ccccc3nc(SCC(=O)NCc3ccco3)n2n1`?
gsp antagonist: 2%; gsp agonist: -30%[inhibitor]; ClpP mod: 0.8%; Menin-MLL FL inh: -0.6; TRPML1 inh: -20; TRPML1 ag: 5.4

What do the screens show for `CN(C)C1=NCCN1CCCCc1ccccc1`?
gsp antagonist: 10%; ClpP mod: -5.1%; TRPML1 inh: -6; TRPML1 ag: 1.0

Results for O=C(CCS(=O)(=O)c1ccccc1)N1CCCc2ccccc21 ?
gsp antagonist: -2%; gsp agonist: -17%; ClpP mod: -0.7%; Menin-MLL FL inh: -0.4; TRPML1 inh: 13; TRPML1 ag: 0.1

How did Cc1ccc(C)c(NC(=O)C2CCCN2S(=O)(=O)c2ccc3c(c2)CCCC(=O)N3)c1 (centres undefined) do in these assays?
ClpP mod: -3.3%; TRPML1 inh: -2; TRPML1 ag: 0.6

How did Cc1cc(=O)oc2c(C)c(OC(C)C(=O)NC3CCN(Cc4ccccc4)CC3)ccc12 (centres undefined) do in these assays?
gsp antagonist: -15%; gsp agonist: -12%; ClpP mod: 3.4%; Menin-MLL FL inh: 0.6; TRPML1 inh: 10; TRPML1 ag: -0.5

Results for CCCC#Cc1cnc2c(c1)C(=O)N([C@H](C)CO)C[C@@H](C)[C@H](CN(C)S(=O)(=O)c1cccc(OC)c1)O2 ?
gsp agonist: 1%; ClpP mod: -2.5%; TRPML1 inh: 73; TRPML1 ag: 0.2

Results for COc1ccc(S(=O)(=O)N2CCCCC2)cc1NC(=O)C1CC1C (centres undefined) ?
gsp antagonist: -5%; gsp agonist: 7%; ClpP mod: 0.6%; TRPML1 inh: 6; TRPML1 ag: -0.6

Results for S=C(NCCc1c[nH]c2ccccc12)NC1CCCCC1 ?
gsp antagonist: -1%; gsp agonist: -1%[15.4 µM]; Menin-MLL FL inh: 1.5; TRPML1 inh: -1; TRPML1 ag: -0.9

How did CCOc1ccc2c(C)cc(=O)oc2c1OCC do in these assays?
gsp antagonist: 5%; gsp agonist: 12%; ClpP mod: -27%; Menin-MLL FL inh: 4.3; TRPML1 inh: 1; TRPML1 ag: 1.1

How did CCN(CC)CC(O)COc1ccc2c(c1)OCO2 (centres undefined) do in these assays?
gsp antagonist: 3%; gsp agonist: -18%; ClpP mod: 13µM*; Menin-MLL FL inh: 4.3; TRPML1 inh: -18; TRPML1 ag: -0.4

How did CCN(CC)c1ccc(/C=N/NC(=O)c2cc3ccccc3[nH]2)cc1 do in these assays?
gsp antagonist: -16%; gsp agonist: 2%; ClpP mod: 4.1%; Menin-MLL FL inh: 3.8; TRPML1 inh: 1; TRPML1 ag: -1.6

What do the screens show for `Cc1ccc(S(=O)(=O)NC(=O)COc2ccccc2C)cc1`?
gsp antagonist: -4%; gsp agonist: -32%[inhibitor]; ClpP mod: inconclusive; Menin-MLL FL inh: 2.5; TRPML1 inh: -11; TRPML1 ag: 0.5

Results for CC1=CC(c2ccccc2)n2ncnc2N1 (centres undefined) ?
gsp antagonist: 11%; gsp agonist: -66%[inhibitor]; ClpP mod: -8.2%; TRPML1 inh: 28; TRPML1 ag: -0.7

Results for COC(=O)c1c(SC)nc2ccccc2c1OCc1ccccc1Cl ?
ClpP mod: -9.0%; TRPML1 inh: 5; TRPML1 ag: 3.5

What do the screens show for `CCOC(=O)c1[nH]c(C)c(C(=O)OCC)c1C`?
gsp antagonist: 5%; gsp agonist: inconclusive; ClpP mod: 1.2%; Menin-MLL FL inh: 1.9; TRPML1 inh: -5; TRPML1 ag: -1.4

How did CC(=O)NCc1ccc(-c2csc(NC(=O)CCCc3nc4ccccc4c(=O)[nH]3)n2)cc1 do in these assays?
gsp antagonist: -6%; gsp agonist: 19%; ClpP mod: -3.6%; TRPML1 inh: 9; TRPML1 ag: -1.2

What do the screens show for `CC1(C)CC(=O)C2=C(C1)NC1=C(C(=O)c3ccccc31)C2c1cccnc1` (centres undefined)?
gsp antagonist: inconclusive; gsp agonist: 31%; ClpP mod: 4.5%; Menin-MLL FL inh: 1.3; TRPML1 inh: 7; TRPML1 ag: 1.0

Results for Cc1ccc(CNc2nc3c(c(=O)n(C)c(=O)n3C)n2Cc2ccc(Cl)cc2)cc1 ?
ClpP mod: 1.1%; TRPML1 inh: 53; TRPML1 ag: -1.0

Results for CNC(=O)c1ccccc1NC(=O)c1cccc(S(=O)(=O)N2CCC(C)CC2)c1 ?
gsp antagonist: -7%; gsp agonist: inconclusive; ClpP mod: 0.6%; Menin-MLL FL inh: 0.7; TRPML1 inh: -5; TRPML1 ag: 1.2

How did O=C(CCc1nc2ccccc2s1)Nc1ccccc1 do in these assays?
gsp antagonist: 3%; gsp agonist: inconclusive; ClpP mod: -3.1%; Menin-MLL FL inh: 2.5; TRPML1 inh: -16; TRPML1 ag: 0.2

How did CC(C)c1ccc(NC2CCCN(C(=O)c3cc(C(C)C)nc(N)n3)C2)cc1 (centres undefined) do in these assays?
gsp antagonist: 6%; gsp agonist: 13%; ClpP mod: -6.5%; Menin-MLL FL inh: 4.2; TRPML1 inh: 2; TRPML1 ag: 0.0

How did O=C(CSc1nc2ccccc2c(=O)n1Cc1ccco1)N1CCCC1 do in these assays?
gsp antagonist: -4%; gsp agonist: 23%; ClpP mod: -0.7%; Menin-MLL FL inh: -1.2; TRPML1 inh: -4; TRPML1 ag: 3.0

How did CCC(C)[C@H](NS(=O)(=O)c1ccc(C)cc1)C(=O)N1CCC(C(=O)N2CCC(C(N)=O)CC2)CC1 (some centres undefined) do in these assays?
gsp antagonist: -8%; ClpP mod: -0.8%; Menin-MLL FL inh: -5.0

What do the screens show for `O=C(Nc1ccccc1NC(=O)C1CCCO1)c1ccco1` (centres undefined)?
gsp antagonist: 5%; gsp agonist: -15%; Menin-MLL FL inh: -0.3; TRPML1 inh: 26; TRPML1 ag: -0.8

Results for CCOc1ccc(OCc2ccc(C(=O)NC(C)C)o2)cc1 ?
gsp antagonist: -3%; gsp agonist: -21%; ClpP mod: -8.4%; Menin-MLL FL inh: 1.8

What do the screens show for `CCOC(=O)C1CCN(C(=O)C2CCC(=O)N(CC3CCCCC3)C2)CC1` (centres undefined)?
gsp antagonist: -31%; gsp agonist: inconclusive; ClpP mod: 1.4%; Menin-MLL FL inh: 1.2; TRPML1 inh: -8; TRPML1 ag: 0.1

3 compounds already listed, arranged by SMILES length, rising:
How did O=C(CCc1nc2ccccc2s1)Nc1ccccc1 do in these assays?
gsp antagonist: 3%; gsp agonist: inconclusive; ClpP mod: -3.1%; Menin-MLL FL inh: 2.5; TRPML1 inh: -16; TRPML1 ag: 0.2

Results for CNC(=O)c1ccccc1NC(=O)c1cccc(S(=O)(=O)N2CCC(C)CC2)c1 ?
gsp antagonist: -7%; gsp agonist: inconclusive; ClpP mod: 0.6%; Menin-MLL FL inh: 0.7; TRPML1 inh: -5; TRPML1 ag: 1.2

Results for Cc1ccc(CNc2nc3c(c(=O)n(C)c(=O)n3C)n2Cc2ccc(Cl)cc2)cc1 ?
ClpP mod: 1.1%; TRPML1 inh: 53; TRPML1 ag: -1.0
